Autofluor counter: counter-screen for toxin protease inhibitors: compound fluorescence; compound autofluorescence counterscreen, microsphere flow cytometry; hits give high values; fluorescence intensity (test concentration not listed); 360,000 compounds, 3.1% hits; AID 624483;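 active means at least 3 SD above the mean of all compounds, about 16000 in these data; inconclusive means too few beads counted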;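 further: 100 nL of 1 mM stock went into each well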
Mtb hypoxia inh: PubChem AID 1159583. fluorescence inhibition, % (test concentration not listed). M. tuberculosis hypoxia-regulated fluorescent reporter, fluorescence. 300,000 compounds, 0.1% hits;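 active means 35 to 45% if threefold the growth effect, above 45% if 1.5-fold the growth effect; inactive means the rest, general growth blockers included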;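 further: wells of about 50 µL received 100 nL stock; 0% = vehicle wells and 100% = reference inhibitor wells; whole bacteria with a GFP reporter of the hypoxia response; strong numbers were not always called active; many hits fall short of the cut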
BJeLR lethal: MLPCN primary cell-based screen for lethality selective to Ras in HRASV12 cells; inhibition, % (concentration not given with the values); BJeLR (HRASV12) viability, CellTiter-Glo ATP luminescence, 48 h; reference of the scale not given here; AID 1554, 2009; 300,000 compounds, 0.17% hits;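 active means replicate mean above 50%; inconclusive means above 50% but judged a plate artefact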;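 further: 50 nL library stock added to about 25 µL; numbers are from one replicate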
RN4220 kill: growth inhibition of S. aureus RN4220, primary screen, OD600. 16 h. inhibition, % (concentration not given with the values). 330,000 compounds, 0.33% hits. AID 1259311, 2017;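 active means z-score of -3 or lower and OD600 up to 0.18 on both plates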;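 further: plate controls were untreated cells for no effect and reference antibiotic for full effect; stock transfer was 100 nL into about 80 µL; one replicate is shown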
ugtP null kill: growth inhibition of ugtP-null S. aureus, primary screen, RN4220 ugtP deletion, OD600. 16 h; some inactives read as strong as hits. growth inhibition, % (no concentration beside the values). 330,000 compounds, 0.54% hits;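 active means z-score under -3 and OD600 up to 0.15 on both plates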;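 further: plate controls were untreated wells for no effect and antibiotic for full effect; wells of about 80 µL received 100 nL stock; the first replicate is given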
PrP 5UTR inh: inhibition of PrP 5' UTR reporter expression | AID 488862, 2010 | cell-based PrP 5' UTR mRNA reporter, plate reader | inhibition, % (no concentration beside the values) | 340,000 compounds, 0.35% hits;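 active means every replicate at 50% or more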;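 further: 0 = median of the neutral control wells; tested in H4 reporter cells; numbers are from one replicate; inactives centre near -14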
Mtb hypoxia inh growth: also measured in Mtb hypoxia inh; calls as there; growth inhibition, %; measured here: M. tuberculosis growth (absorbance);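 0% = vehicle and 100% = reference antibiotic; read after six days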
Starred values were filed as active, the others as inactive; ? = inconclusive; . = not tested or not shown; & = joins results of further samples. Rows were taken by chance; 4.1% or so of the library scored in one or more.

Each structure is followed by: Autofluor counter | Mtb hypoxia inh | Mtb hypoxia inh growth | BJeLR lethal | RN4220 kill | ugtP null kill | PrP 5UTR inh
> c1ccc(Cn2nnnc2C(c2ccncc2)N2CCOCC2)cc1 (stereo not given)
→ 12841 | -6 | 0 | -8 | 3.6 | 1 | -5
> Cc1cc(S(=O)(=O)NCc2ccccc2)ccc1OCC(=O)N1CCCC1
→ 5495 | -4 | 4 | -3 | 2.5 | 1 | 5
> CC(=O)c1ccn(S(=O)(=O)c2ccccc2)c1
→ 1927 | 9 | 3 | 5 | 5.8 | 3 | -3
> CCOc1ccc(NC(=S)NC(=O)c2cccnc2)c([N+](=O)[O-])c1
→ 4353 | 15 | 8 | -5 | 3.3 | 0 | -9
> CC1CCN(c2ccc(NC(=S)NC(=O)c3ccc(-c4cccc([N+](=O)[O-])c4)o3)cc2)CC1
→ 9055 | -2 | 9 | 3 | 1.4 | 15 | -11
> CC1CC(C)CN(C(=O)COC(=O)CNC(=O)C23CC4CC(CC(C4)C2)C3)C1 (stereo not given)
→ ? | 4 | 5 | -2 | 2.9 | 2 | -18
> O=C(NCc1cccc(Cl)c1)N1CCN(S(=O)(=O)c2ccccc2F)CC1
→ 3551 | 13 | 2 | 2 | -4.7 | 11 | -31
> COC(=O)C1CN(C(=O)C(C)Oc2cccc(C)c2C)c2ccccc2O1 (stereo not given)
→ 2950 | -3 | 0 | -2 | 5.6 | 5 | -5
> CCCc1cc(=O)oc2cc(C)cc(OC(C)C(=O)NCCN3CCOCC3)c12 (stereo not given)
→ 5810 | -3 | 8 | -2 | -1.8 | -4 | -6
> O=C(Nc1nnc(-c2ccc3c(c2)CCCC3)o1)C1CCCCC1
→ 4537 | 6 | 6 | 1 | 5.4 | 2 | -7
> O=C(CN1CCN(C/C=C/c2ccccc2)CC1)NCc1ccccc1
→ 2474 | 0 | 14 | -1 | -0.5 | 13 | -21
> CC(C)(C)CN1CCNC(=O)C1CC(=O)N1CCOc2ccccc2C1 (stereo not given)
→ 5467 | 4 | -1 | -2 | 3.9 | 7 | -17
> CCc1cc(Cl)c(OC)c(C(=O)NCC2CCCN2CC)c1O (stereo not given)
→ . | 3 | 1 | . | -2.6 | 69 | .
> O=C(Cc1ccccc1)N(c1ccc(F)cc1)C1C=CS(=O)(=O)C1 (stereo not given)
→ 6129 | -3 | 5 | 1 | -1.8 | 1 | -8
> CCc1nnc(NN=Cc2cc(Br)c(O)cc2O)n1N
→ . | 6 | 19 | . | -3.5 | -11 | .
> CCCCCC(=O)Nc1nc(C)c(-c2csc(Nc3ccc(Cl)cc3)n2)s1
→ 3746 | 13 | 4 | 1 | -17 | -44 | -18
> O=C(O)CC(NC(=O)OCc1ccccc1)c1ccccc1 (stereo not given)
→ 2960 | 0 | 11 | -1 | 9.2 | -1 | -3
> O=Cc1cn(CCCOc2ccccc2)c2ccccc12
→ 2422 | 8 | 10 | 15 | -2.4 | 13 | -23
> CN(C)C(CNC(=O)CCS(=O)(=O)c1ccccc1)c1ccccc1 (stereo not given)
→ 4153 | 4 | 3 | 4 | 3.4 | 3 | -30
> O=[N+]([O-])c1ccc([N+](=O)[O-])c(Nc2ccc(N3CCOCC3)cc2)c1
→ 3973 | -5 | 1 | 7 | 12 | 11 | -24
> CCc1ccc(S(=O)(=O)Nc2ccc(-c3ccc4nnc(C)n4n3)cc2)s1
→ ? | 1 | 2 | . | 7.9 | -1 | -4
> CCCCNC(=S)Nc1ccc2nc3n(c(=O)c2c1)CCCCC3
→ 10686 | . | . | -12 | . | . | -19
> O=c1cc2c(nn1Cc1ccccc1Cl)-c1ccccc1CC2
→ 3562 | . | . | 5 | 1.1 | -3 | -17
> O=[N+]([O-])c1cc(F)c(N2CCCCC2)cc1N1CCOCC1
→ 9474 | 7 | 4 | 10 | 4.3 | 1 | .
> CC(C)CCNC(=O)C(C)N(C(=O)c1snc(C(N)=O)c1N)c1cnc2ccccc2c1 (stereo not given)
→ 4191 | -2 | -2 | -3 | -0.9 | 4 | -17
> CC(=O)N1c2ccc(N=Cc3cc(Br)cc(Br)c3O)cc2CC1C (stereo not given)
→ . | -4 | -7 | -3 | 2.0 | 0 | .
> Cn1c(=O)c2c(nc(NCCO)n2CCCc2ccccc2)n(C)c1=O
→ 3796 | -1 | -4 | 7 | 0.6 | 3 | -17
> NC1=NC(=O)/C(=C\c2ccc(O)c([N+](=O)[O-])c2)S1
→ 3823 | 56* | 31* | 0 | 4.0 | 10 | -7
> Cc1nc2c(cc1C(=O)NN=Cc1ccc(O)c(O)c1)c(=O)n(C)c(=O)n2C
→ . | 12 | 7 | . | 6.4 | -5 | .
> CCCCC(SCC(=O)Nc1ccccc1)C(=O)O (stereo not given)
→ 2152 | . | . | -1 | 4.3 | 7 | -3

Continued:
Each structure is followed by: Autofluor counter | Mtb hypoxia inh | Mtb hypoxia inh growth | BJeLR lethal | RN4220 kill | ugtP null kill | PrP 5UTR inh
> CC1=C(C#N)C(C(F)(F)F)(C(F)(F)F)N=C(c2ccco2)N1
→ 7518 | 12 | 11 | 1 | 4.9 | 1 | -13
> CC12CCC3C(CC=C4CC(O)CCC43C)C1C/C(=C\c1ccccc1F)C2=O (stereo not given)
→ 2054 | 2 | 8 | -1 | 4.0 | 38 | -26
> O=[N+]([O-])c1ccc(-c2cn3c(n2)SCC3)cc1
→ . | 7 | 14 | 1 | 3.3 | 5 | .
> Cc1ccc(S(=O)(=O)Nc2ccccc2C=Nc2nc3ccccc3n2C)cc1
→ . | 5 | 9 | . | 28 | 5 | .
> CC(=O)Nc1ccc(N(CC(=O)NCC2CCCO2)C(=O)CCC(=O)Nc2cc(C)on2)cc1 (stereo not given)
→ 3732 | -12 | -1 | 7 | -2.6 | 5 | -8
> CCCCN(C(=O)CCSc1ccc(F)cc1)c1c(N)n(Cc2ccccc2)c(=O)[nH]c1=O
→ 5492 | 2 | 3 | -2 | 2.4 | 5 | 5
> Cc1noc(C)c1NC(=O)Nc1ccc2c(c1)C(=O)N([C@H](C)CO)C[C@H](C)[C@@H](CN(C)C(=O)Nc1ccccc1)O2
→ 3405 | 1 | 5 | . | 2.1 | 2 | 3
> CC(=O)N1c2ccc(S(=O)(=O)N3CCCC3)cc2CC1C(=O)NCc1cccc(F)c1 (stereo not given)
→ 5238 | 9 | 4 | -9 | 0.0 | 0 | 0
> O=Cc1ccc2oc3nc4n(c(=O)c3c(=O)c2c1)CCCS4
→ ? | . | . | 4 | 4.4 | -11 | -8
> CCN(c1ccccc1)S(=O)(=O)c1ccc(C(=O)NCCCN2CCOCC2)cc1
→ 3033 | 11 | 5 | . | 11 | 10 | -9
> COc1ccc(-c2ccc(NS(=O)(=O)c3cc([N+](=O)[O-])c(C)c([N+](=O)[O-])c3)cc2)nn1
→ 4370 | 5 | -2 | 0 | 1.3 | 4 | -3
> COc1cc(S(=O)(=O)N(Cc2cccnc2)Cc2ccco2)ccc1-n1cnnn1
→ 10369 | 0 | -2 | -2 | 5.3 | 0 | 3
> O=C(Nc1ccccc1C(=O)O)c1ccc2ccccc2n1
→ 2519 | . | . | 5 | 9.8 | 2 | -28
> CCCCN(C)CCNC(=O)c1cn(C)c(=O)c2c1c1ccccc1n2C
→ 3631 | -9 | -27 | -2 | 1.2 | 15 | -3
> Cc1ccc(C)c(S(=O)(=O)/N=C2\C=C(NS(=O)(=O)c3ccccc3)C(=O)c3ccccc32)c1
→ 3865 | . | . | -4 | . | . | -23
> COc1cccc([C@@]2(O)CCCC[C@@H]2CN(C)C)c1
→ 5795 | 5 | -6 | 3&12 | 2.3 | 5 | -19
> COc1ccccc1OCCOc1ccccc1/C=N/n1cnnc1
→ 2562 | . | . | 1 | . | . | -30
> CCN(CCCNC(=O)CCCCn1c(=O)[nH]c2ccccc2c1=O)c1ccccc1
→ 4192 | 1 | 12 | -6 | 4.8 | 0 | -8
> Cc1ccc(Cl)cc1NC(=O)COC(=O)CC1CC2CCC1C2 (stereo not given)
→ 4902 | . | . | -1 | 1.0 | 1 | -10
> Cc1ccc(-n2c(=S)[nH]c3sc4c(c3c2=O)CCc2ccccc2-4)cc1
→ 2349 | 12 | -6 | -3 | 1.1 | -2 | -21
> CCNC(=O)CC1C(=O)N(CC)C(=S)N1NC(=O)c1ccc(Cl)cc1 (stereo not given)
→ 5890 | 5 | -5 | -2 | 2.8 | 4 | -5
> COc1ccc(C2CC3(O)CC(C#N)(C(=O)N3)C2(C#N)C#N)cc1 (stereo not given)
→ 5431 | -4 | 9 | -8 | -1.3 | 1 | -12
> CCn1c2ccccc2c2cc(NC(=O)C(C)C)ccc21
→ 7834 | 13 | 3 | 0 | 11 | -7 | -25
> O=C(NCC1CCCO1)C1CCN(S(=O)(=O)c2ccc(Br)cc2)CC1 (stereo not given)
→ 5499 | 3 | 0 | 0 | 2.3 | 4 | 0
> O=C(NCCCN1CCOCC1)c1ccc2c(c1)N(Cc1ccccc1)CCS2
→ 4537 | 6 | 9 | -16 | 14 | 4 | -25
> COc1cccc(/C=C/C(=O)OCC(=O)c2c[nH]c3ccccc23)c1OC
→ 4789 | 3 | 6 | 2 | 7.0 | 1 | -8
> CC(C)(C)NS(=O)(=O)c1ccc(CCC(=O)Nc2cc(Cl)ccc2Oc2ccccc2)cc1
→ 4870 | . | . | -1 | -2.0 | -10 | -2
> CCOc1ccc(NC(=O)c2cc(SC)ccc2Cl)cc1
→ 2450 | 20 | 4 | 8 | 7.4 | 11 | -28
> Clc1ccccc1-c1nc(-c2ccccc2)n[nH]1
→ 24108* | 10 | 0 | 4 | 5.5 | -11 | -72
> COc1ccccc1-n1c(CNC(=O)c2ccco2)nnc1SCC(=O)Nc1ccc(F)cc1
→ 3830 | . | . | -2 | 2.5 | 16 | -15

More structures
Each structure is followed by: Autofluor counter | Mtb hypoxia inh | Mtb hypoxia inh growth | BJeLR lethal | RN4220 kill | ugtP null kill | PrP 5UTR inh
> N#C/C(C(=O)N1CCCCC1)=C1\Nc2ccccc2S1
→ 5158 | . | . | -3 | 4.7 | -9 | -48
> C=CCN(c1ccc(F)cc1)S(=O)(=O)c1cc(C(=O)OCC(=O)N(C)C2CCS(=O)(=O)C2)ccc1Cl (stereo not given)
→ 5128 | -6 | 1 | 7 | 1.8 | -5 | -14
> O=S(=O)(Nc1ccncc1Cl)c1ccc2ccccc2c1
→ 4463 | 6 | 15 | -2 | 3.6 | 13 | -12
> Cc1ccc(C)c(SCC(=O)Nc2cccc(S(=O)(=O)NC3=NCCCCC3)c2)c1
→ 2002 | 8 | 4 | 2 | 7.5 | 0 | -11
> COc1ccc(NC(=O)c2ccc(NS(=O)(=O)c3cccc4cccnc34)cc2)cc1
→ 4039 | -10 | 5 | 4 | 1.8 | 4 | 4
> CN(C(=O)COC(=O)c1ccc(CN2CCCC2=O)cc1)c1ccccc1
→ 8585 | -2 | 5 | . | 2.1 | -3 | 3
> CCCN(CCC)C(=O)C(c1ccccc1)C1(O)CCCCC1 (stereo not given)
→ 3779 | 7 | 6 | . | 0.8 | -2 | -13
> O=C(CSc1nccc(=O)[nH]1)NCc1ccco1
→ 3974 | -2 | 6 | 2 | 2.8 | 2 | -21
> O=Cc1c(-c2ccccc2)nc2ccccn12
→ 4925 | 20 | 12 | -4 | 2.8 | 2 | -38
> CC1(C)Cc2c(sc3[nH]c(=S)n(Cc4ccco4)c(=O)c23)CO1
→ 10724 | 17 | 5 | 8 | 11 | 6 | -13
> O=c1nccc(N/N=C/c2ccccc2)[nH]1
→ 3818 | . | . | 4 | . | . | -34
> CC(=O)NC1C(=O)N=C(SCC(=O)Nc2cccc(Cl)c2)NC1=O (stereo not given)
→ 4628 | -1 | -4 | -13 | 3.0 | 2 | -11
> CCCCc1ccc(C(C)=NNC(=O)C2CCCC2)cc1
→ . | -5 | -2 | . | 0.6 | 8 | .

A draw from above in order of number of heavy atoms, falling:
Each structure is followed by: Autofluor counter | Mtb hypoxia inh | Mtb hypoxia inh growth | BJeLR lethal | RN4220 kill | ugtP null kill | PrP 5UTR inh
> CC(C)CCNC(=O)C(C)N(C(=O)c1snc(C(N)=O)c1N)c1cnc2ccccc2c1 (stereo not given)
→ 4191 | -2 | -2 | -3 | -0.9 | 4 | -17
> O=C(CN1CCN(C/C=C/c2ccccc2)CC1)NCc1ccccc1
→ 2474 | 0 | 14 | -1 | -0.5 | 13 | -21
> CCOc1ccc(NC(=O)c2cc(SC)ccc2Cl)cc1
→ 2450 | 20 | 4 | 8 | 7.4 | 11 | -28
> O=C(CSc1nccc(=O)[nH]1)NCc1ccco1
→ 3974 | -2 | 6 | 2 | 2.8 | 2 | -21
